From PubChem
YopH PTP inh: YopH tyrosine phosphatase inhibitors, primary screen, biochemical, fluorescence Ex485/Em525; YopH tyrosine phosphatase [Yersinia enterocolitica]; inhibition, %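 (about 10 µM by stock and volumes)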; 140,000 compounds, 0.16% hits;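 active = inhibition of 50% or more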;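 also: controls were vehicle for no effect and minimum signal wells for full effect; inactives centre near -20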
Mtb H37Rv: M. tuberculosis H37Rv growth inhibitors, H37Rv strain (AID 1626) | M. tuberculosis H37Rv growth inhibition; higher % means a stronger effect | 220,000 compounds, 0.95% hits | inhibition, % at 10 µM; hits with a dose series show IC50 in µM;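 active = confirmed in a dose series; inconclusive = inhibition above 80% but not taken into the dose series; inactive = below 80% or under 30% at every dose of the series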;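 also: bacteria incubated seven days before Alamar blue readout; 0% = bacteria only wells and 100% = bacteria with antibiotic wells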
Arbovirus anti: antivirals against arbovirus infection, primary screen, cell-based, full library, 10K replicate subset; arbovirus infection cell-based antiviral screen; inhibition, % at 10 µM; 200,000 compounds, 0.37% hits; AID 1251, 2008;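 active = inhibition from about 30%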;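 also: bluetongue infection of BSR cells; cell survival read as ATP light after 72 h; 0% = infected wells without compound and 100% = uninfected wells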
Mtb bLac sens: beta-lactam sensitization of Mtb H37Rv, H37Rv; M. tuberculosis H37Rv growth with meropenem, percent inhibition; hits of this screen are not shown here; 330,000 compounds, 0.27% hits; inhibition, % at 25 µM;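 active = about 74% or more and at least 40 points above the plate without the antibiotic, then above 30% in a dose series; inconclusive = first-round hits that could not be retested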;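 also: growth measured after seven days incubation then overnight dye step; 0% = bacteria only wells and 100% = bacteria with antibiotic; twin plates without the antibiotic show which effects depend on it; some results filed as inactive read as strong as hits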
RecA splice inh: Mtb RecA intein splicing inhibitors, primary screen, biochemical, fluorescence, HTS. Protein RecA (Mycobacterium tuberculosis (strain ATCC 25618 / H37Rv)), P9WHJ3. cell-free RecA intein splicing. inhibition, %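 (about 9 µM by stock and volumes)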. 290,000 compounds, 0.75% hits. AID 2221, 2009; in the data active = inhibition above about 30%; inconclusive = no clear call, values can overlap the other calls;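 also: 0% = vehicle wells and 100% = reference inhibitor control wells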
Target sequence (P9WHJ3 whole entry, looked up, canonical isoform): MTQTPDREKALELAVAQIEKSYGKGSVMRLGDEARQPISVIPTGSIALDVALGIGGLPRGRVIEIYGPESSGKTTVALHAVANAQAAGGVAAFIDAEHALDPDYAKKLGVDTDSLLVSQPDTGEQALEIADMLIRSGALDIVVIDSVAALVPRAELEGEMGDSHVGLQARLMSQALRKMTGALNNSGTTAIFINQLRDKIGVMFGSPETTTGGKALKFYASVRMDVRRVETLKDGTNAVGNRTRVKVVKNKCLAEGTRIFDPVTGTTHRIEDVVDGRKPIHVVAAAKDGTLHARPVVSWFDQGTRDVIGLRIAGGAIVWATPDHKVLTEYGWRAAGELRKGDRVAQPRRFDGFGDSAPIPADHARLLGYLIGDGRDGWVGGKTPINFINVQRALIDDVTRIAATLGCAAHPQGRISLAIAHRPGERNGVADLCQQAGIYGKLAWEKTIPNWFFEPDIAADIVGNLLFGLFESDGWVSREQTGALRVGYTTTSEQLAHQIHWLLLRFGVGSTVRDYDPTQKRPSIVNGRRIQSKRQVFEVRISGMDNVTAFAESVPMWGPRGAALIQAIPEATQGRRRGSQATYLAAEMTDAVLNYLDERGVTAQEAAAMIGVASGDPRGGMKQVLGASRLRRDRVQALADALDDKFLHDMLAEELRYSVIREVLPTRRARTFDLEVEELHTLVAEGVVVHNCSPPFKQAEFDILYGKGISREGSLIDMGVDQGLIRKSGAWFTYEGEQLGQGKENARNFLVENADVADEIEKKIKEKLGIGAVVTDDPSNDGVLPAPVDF
Starred values were filed as active, the others as inactive; ? = inconclusive; / = no result given. An excerpt (hit frequency here may not be typical).

SMILES	YopH PTP inh	Mtb H37Rv	Arbovirus anti	Mtb bLac sens	RecA splice inh
NNC(=O)CN1C(c2cccc(Cl)c2)=Nc2ccc(Br)cc2C1c1ccccc1 (stereo not drawn)	-23	-2%	-10	7	2.3
Cc1c(C(=O)N2CCCCC2)c(S(=O)(=O)N(C)Cc2ccco2)c(C)n1C	/	/	/	0	0.4
Cc1ncc(CN2CCCC(C(=O)Nc3ccc(-c4cccc(F)c4)cc3)C2)cn1 (stereo not drawn)	/	/	/	85	0.6
O=C1CC(=Nc2ccccc2)NN1c1ccccc1	-84	-5%	-22	65	8.2
CCOC(=O)c1c(C)[nH]c(C(=O)OCc2ccccc2F)c1C	/	/	/	6	0.6
COc1ccc(CCNC(=O)C(C)OC(=O)c2cccs2)cc1OC (stereo not drawn)	/	/	/	-2	1.3
COc1ccc(C(=O)COC(=O)CCCn2c(=O)oc3ccccc32)cc1	-36	-9%	/	-2	1.2
COc1cccc(S(=O)(=O)Nc2cccc(C(=O)N3CCCCCC3)c2)c1	-36	-4%	10	5	-3.1
CCCN(C(=O)Cc1ccc(S(=O)(=O)N2CCOCC2)s1)c1c(N)n(Cc2ccccc2)c(=O)[nH]c1=O	/	/	/	-2	-3.1
C/C(=N/NC(=O)c1cc(-c2cccc([N+](=O)[O-])c2)n[nH]1)c1cccc(O)c1	/	-3%	/	-6	-3.6
Cc1c(C(=O)N2CCCC2)sc(NC(=O)c2cccc(Cl)c2)c1C#N	-29	-6%	15	-2	-0.3
NC(=O)NC(CC(=O)NCCCc1ccccc1)c1ccccc1Cl (stereo not drawn)	/	5%	7	-1	-0.8
Cc1ccc(S(=O)(=O)N(C)C)cc1NC(=O)COC(=O)C1CC(=O)N(c2ccc3c(c2)OCCO3)C1 (stereo not drawn)	/	/	/	-3	3.9
CCCCNC(=O)CCCn1c(=S)[nH]c2cc3c(cc2c1=O)OCO3	11	0%	3	3	-1.4
O=C(Nc1c(F)cc(F)cc1Br)c1cc2nc(C(F)F)cc(C(F)F)n2n1	-11	2%	5	-9	2.5
COc1ccccc1OC(C)C(=O)Nc1ccccc1C(=O)NCc1cccnc1 (stereo not drawn)	/	/	/	3	1.0
CCOc1ccc(N/C=C/C(=O)c2ccc(OC)c(OC)c2)cc1	/	/	/	96	-3.8
CC(=O)Nc1ccc(OCc2cnc(Cl)s2)cc1	/	-1%	1	5	1.7
O=c1ccnc(SCCc2ccccc2)[nH]1	/	/	/	-23	-0.4
Nc1ncnc2c1ncn2[C@@H]1O[C@H](CO)[C@@H](O)[C@@H]1O	/	-1%	/	23	0.1
O=C(CN1C(=O)CCC1=O)Nc1nc(-c2ccc3ccccc3c2)cs1	/	0%	17	2	1.8
COc1cccc(C2c3[nH]c4ccccc4c3C[C@H]3C(=O)N(C4CC4)CC(=O)N23)c1 (stereo partly drawn)	/	/	/	0	-2.0
CCOC(=O)Cn1nc(C)c2c1CCCC2=O	17	-3%	11	-6	6.0
O=C(Nc1nc(-c2ccncc2)cs1)C1c2ccccc2Oc2ccccc21	-11	85%	17	52	9.9
COc1cc(-c2nc3n(n2)C(c2ccncc2)C2=C(CCCC2=O)N3)cc(OC)c1OC (stereo not drawn)	/	1%	-14	-6	-4.2

2 compounds drawn at random from those above:
SMILES	YopH PTP inh	Mtb H37Rv	Arbovirus anti	Mtb bLac sens	RecA splice inh
CCOC(=O)c1c(C)[nH]c(C(=O)OCc2ccccc2F)c1C	/	/	/	6	0.6
O=c1ccnc(SCCc2ccccc2)[nH]1	/	/	/	-23	-0.4

Returning to the listing, repeating the 4 entries before the break.
SMILES	YopH PTP inh	Mtb H37Rv	Arbovirus anti	Mtb bLac sens	RecA splice inh
COc1cccc(C2c3[nH]c4ccccc4c3C[C@H]3C(=O)N(C4CC4)CC(=O)N23)c1 (stereo partly drawn)	/	/	/	0	-2.0
CCOC(=O)Cn1nc(C)c2c1CCCC2=O	17	-3%	11	-6	6.0
O=C(Nc1nc(-c2ccncc2)cs1)C1c2ccccc2Oc2ccccc21	-11	85%	17	52	9.9
COc1cc(-c2nc3n(n2)C(c2ccncc2)C2=C(CCCC2=O)N3)cc(OC)c1OC (stereo not drawn)	/	1%	-14	-6	-4.2
O=C(c1ccc(-c2ccccc2)c(F)c1)C1CCCN(C(=O)c2cncs2)C1 (stereo not drawn)	/	7%	6	96	2.4
CCN(CCO)Cc1cn[nH]c1-c1ccc(C)c(C)c1	-37	4%	-3	-21	0.6
O=C(Nc1nc(=O)[nH]s1)c1ccccc1	/	-2%	11	2	5.9
O=S(=O)(NC1=NCCC1)c1ccc(F)cc1	-25	0%	4	-5	-1.3
COc1ccc(S(=O)(=O)N(C)CC(=O)Nc2cccc(C(C)=O)c2)cc1C	-20	0%	1	-2	0.6
NNC(=O)CSc1c(-c2ccccc2)c2cc(Cl)ccc2[nH]c1=O	/	/	/	-6	9.7
CC(C(=O)NN)c1ccc([N+](=O)[O-])cc1 (stereo not drawn)	/	7%	-2	-3	/
S=c1[nH]nc(COc2ccccc2)n1/N=C/c1ccc(Cl)c(Cl)c1	/	/	/	4	0.9
COc1ccc(S(=O)(=O)NCC(=O)N(CC(=O)NC(C)(C)C)Cc2cccs2)cc1	/	-12%	0	2	-0.5
O=C(CCN1CCN(c2ccccc2)CC1)NNC(=O)c1cccc2ccccc12	-18	1%	2	-8	0.1
CC(=O)c1cccc(NC(=O)CNC(=O)c2sc3ccccc3c2Cl)c1	/	/	/	-2	0.9
O=C(CCNC(=O)c1ccc([N+](=O)[O-])cc1)Nc1ccc(F)cc1F	/	/	/	12	0.5
Cc1ccsc1/C=C1\SC(=S)N(CC2CCCO2)C1=O (stereo not drawn)	/	-5%	-8	-6	1.2
O=C(NCc1csc2ccc(Cl)cc12)Nc1ccccc1	/	-8%	/	-13	0.5
Cc1ccnc(N(C(=O)Nc2ccccc2)C2=NCC(C)(C)S2)c1	/	-11%	/	41	1.3
COc1ccc(CNC(=O)C/C(C)=N/NC(=O)COc2ccccc2)cc1	/	-1%	4	-3	0.9
CC(C)CNS(=O)(=O)c1ccc(CCC(=O)Nc2ccc3c(c2)OCCO3)cc1	-29	3%	0	-2	-0.7
COc1ccc(-c2nnc(NC(=O)c3ccccc3[N+](=O)[O-])s2)c(OC)c1	/	/	/	2	-6.8
CCCn1c(SCC(=O)N2c3ccccc3CC2C)nnc1-c1ccco1 (stereo not drawn)	7	3%	-7	-4	-1.6
COC(C(=O)Nc1ccnn1C1CCN(Cc2ccc(C)o2)CC1)c1ccccc1 (stereo not drawn)	/	/	/	-5	0.2
Cc1nc(SCC(=O)NC(=O)NC(C)(C)C)nc(C)c1C	/	-6%	/	2	-2.8
O=C(C(=O)c1cccnc1)c1cccnc1	/	-7%	/	0	0.8
C=CCCCCCCCCC(=O)NN	2	?	-21	79	-1.5
CCc1nc(C#N)c(N2CCCCC2)o1	-29	-7%	0	-5	-0.1
Cc1cc(C)n2nc(C)c(Br)c2n1	/	-1%	3	1	-3.0

Sorted by formula weight (ascending): 3 of the compounds above.
SMILES	YopH PTP inh	Mtb H37Rv	Arbovirus anti	Mtb bLac sens	RecA splice inh
O=C(C(=O)c1cccnc1)c1cccnc1	/	-7%	/	0	0.8
O=C(NCc1csc2ccc(Cl)cc12)Nc1ccccc1	/	-8%	/	-13	0.5
Cc1ccsc1/C=C1\SC(=S)N(CC2CCCO2)C1=O (stereo not drawn)	/	-5%	-8	-6	1.2

More records:
SMILES	YopH PTP inh	Mtb H37Rv	Arbovirus anti	Mtb bLac sens	RecA splice inh
CCSc1nnc2n1C(C)(C)Cc1ccccc1-2	-19	/	2	-11	3.9
O=C(CSc1cn[nH]n1)Nc1ccc(O)c(C(=O)O)c1	/	/	/	-7	-0.2
CC(NS(=O)(=O)c1cccc(S(=O)(=O)c2ccccc2)c1)C(=O)O (stereo not drawn)	4	-6%	3	5	0.7
Cn1c(=O)c2c(n(C)c1=O)=NC1(CCCCC1)N=2	-13	1%	-3	-7	-9.0
O=C(COc1ccc([N+](=O)[O-])cc1)N1CCc2ccccc2C1	/	/	/	-4	1.2
CC1(C)C=C2[C@H]3CC[C@@H]4[C@@]5(C)CCC(=O)C(C)(C)[C@@H]5CC[C@@]4(C)[C@]3(C)CC[C@@]2(C(=O)O)CC1	5	-2%	-24	-2	26
Cc1ccc(N(CC(=O)NCc2ccco2)C(=O)CCC(=O)Nc2nccs2)cc1C	/	/	/	1	3.2
CC(NC(=O)c1cccs1)c1n[nH]c(=S)n1C (stereo not drawn)	-44	-8%	1	-2	1.4
COc1ccc(C2=NS(=O)(=O)N(C)C(C(=O)NC3CCCC3)=C2)cc1OC	/	/	/	0	3.7
Nc1ccccc1-c1ccccc1N	/	-3%	-1	4	0.0
CC(C)(C)NC(=O)C(Cc1ccccc1)N1C(=O)c2ccccc2C1=O (stereo not drawn)	/	/	/	-9	1.2
Cc1ccc(NC(=O)CCSc2nnc(Cc3ccccc3)o2)cc1	-22	17µM*	1	98	-0.6
Cc1ccc(S(=O)(=O)NCc2ccncc2)cc1C	/	3%	10	-2	11
CNC(=O)CSc1nc(N)c2c3c(sc2n1)CCC3	-4	10%	-9	7	-3.2
Cc1ccc(NC(=O)c2csc3c2CCCC3)cc1	/	5%	4	7	-0.3
O=C(CSC1=NS(=O)(=O)c2ccccc2N1)Nc1nccs1	/	/	/	-6	-0.1
Cc1ccc2nc(-c3ccccc3)c(NC(=O)c3ccco3)n2c1	34	4%	-2	3	-0.6
CCOc1ccccc1Oc1coc2cc(O)ccc2c1=O	-19	-4%	2	-2	-0.1
O=C(CCC(=O)N1CCOc2ccc(Cl)cc21)N1CCN(c2ccccn2)CC1	/	/	/	-3	1.5
CN(C)S(=O)(=O)c1ccc(Cl)c(NC(=O)COC(=O)c2cc(-c3ccccc3)nc3ccccc23)c1	-15	2%	2	-1	-0.3
COc1cc(C)ccc1OCc1cc(C(=O)N2CCC(c3ccc(F)cc3)C2)no1 (stereo not drawn)	/	/	/	4	-1.4
O=C1N=c2ccccc2=C1c1sc(=S)n(NC(=O)c2ccccc2)c1O	/	9%	/	-3	0.7
COC(=O)c1cnc2ccccc2n1	-16	-1%	3	-1	-2.7
COCCNC(=O)Cn1nc(Cc2ccncc2)c2ccccc2c1=O	/	/	/	9	-1.0
O=C(c1cnc2sccn2c1=O)N1CCCc2ccccc21	/	1%	/	-2	3.6

(next part)
SMILES	YopH PTP inh	Mtb H37Rv	Arbovirus anti	Mtb bLac sens	RecA splice inh
Cc1cccc(N/C(N)=N/c2nc(CSc3ccc(Cl)cc3)cc(=O)[nH]2)c1	/	5%	/	58	-2.7
CC[C@H]1OC(=O)C[C@@H](O)[C@H](C)[C@@H](O[C@@H]2O[C@H](C)C[C@H](N(C)C)[C@H]2O)[C@@H](CC=O)C[C@@H](C)C(=O)C=C[C@]2(C)O[C@H]2[C@@H]1C	/	/	/	11	0.6
COc1ccc2nc(NC(=O)C3CCCN(S(=O)(=O)c4cccs4)C3)sc2c1 (stereo not drawn)	-37	?	-11	97	10
Cc1cc(NC(=O)COC(=O)CCS(=O)(=O)c2cc(Cl)ccc2Cl)no1	/	/	/	-2	0.3
O=C(Cc1c(F)cccc1Cl)Nc1ccc(S(=O)(=O)Nc2nccs2)cc1	/	/	/	6	0.2
O=C(Nc1nnc(-c2ccco2)o1)c1ccc(S(=O)(=O)N2CCOCC2)cc1	/	37%	1	/	0.2
COc1cc(/C=C2\SC(c3ccccc3)=NC2=O)cc(Cl)c1O	/	-2%	-1	/	17
O=C(CCc1ccccc1)Nc1ccc(NC(=O)C2CC2)nc1	-48	48%	12	61	2.6
Oc1ccc(Cl)cc1/C=C/c1ccc2cccc(O)c2n1	/	?	-39	/	-0.9
CCOc1ccccc1C(=O)Nc1cc(C)ccc1NC(=O)c1ccco1	/	/	/	-9	1.8
CC(C)OC(=O)c1cc(Cl)c(=O)n(Cc2ccc(Cl)cc2Cl)c1	/	/	/	5	11
Cn1nnnc1SCC(=O)NC1CCCc2ccccc21 (stereo not drawn)	/	-5%	3	-4	/
O=C(NNC(=O)c1ncc(Cl)c(Cl)c1Cl)c1ccc(F)cc1	/	/	/	11	3.2
O=C(CNS(=O)(=O)c1ccc2ccccc2c1)OCc1csc(-c2ccccc2)n1	-37	6%	-5	9	5.5

In another format: results already given
| SMILES | YopH PTP inh | Mtb H37Rv | Arbovirus anti | Mtb bLac sens | RecA splice inh |
| --- | --- | --- | --- | --- | --- |
| Cc1cccc(N/C(N)=N/c2nc(CSc3ccc(Cl)cc3)cc(=O)[nH]2)c1 | / | 5% | / | 58 | -2.7 |
| O=C(CNS(=O)(=O)c1ccc2ccccc2c1)OCc1csc(-c2ccccc2)n1 | -37 | 6% | -5 | 9 | 5.5 |
